B2AR ag: beta2AR agonists driving receptor internalization, primary screen, cell-based, FAP fluorogen, flow cytometry; Am2.2-beta2AR cells; reference of the scale not given here; response, % (no concentration beside the values); AID 504454, 2011; Beta-2 adrenergic receptor (Homo sapiens), P07550; actives 0.43% (n = 340,000);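 active means response above a set limit, near 3 SD of response in nonfluorescent compounds, cut at about 42% in these data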;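 further: stock transfer was 100 nL into about 11 µL; a reference agonist was the positive control; negative values mostly stem from fluorescent compounds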
Target sequence (P07550 whole entry, looked up): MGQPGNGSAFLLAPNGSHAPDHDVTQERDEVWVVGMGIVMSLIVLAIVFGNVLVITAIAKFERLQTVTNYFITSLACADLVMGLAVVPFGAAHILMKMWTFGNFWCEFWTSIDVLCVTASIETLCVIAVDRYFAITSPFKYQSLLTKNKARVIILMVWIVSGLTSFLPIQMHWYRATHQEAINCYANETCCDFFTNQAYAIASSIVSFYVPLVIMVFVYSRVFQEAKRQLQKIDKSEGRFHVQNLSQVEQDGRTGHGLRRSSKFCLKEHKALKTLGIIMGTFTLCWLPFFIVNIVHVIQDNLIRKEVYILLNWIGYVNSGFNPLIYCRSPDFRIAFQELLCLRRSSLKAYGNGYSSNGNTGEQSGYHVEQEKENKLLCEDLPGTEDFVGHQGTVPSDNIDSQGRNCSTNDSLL
rRNA inh HTS: reduced GFP signal of wild-type E. coli, primary screen, bacterial rRNA inhibitor project, GFP/RFP fluorescence, OD600, single point; E. coli WT GFP vs humanized-ribosome RFP mutants, 24 h; stronger effect = lower value; DMSO median 0, no signal -100; GFP signal change (wild-type ribosome), % (test concentration not listed); actives 1.6% (n = 350,000); AID 720706, 2013;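 active means significant combined selectivity score with lowered wild-type GFP, culture density cut under 30%, mutant RFP and density less affected; inactive means any of these conditions unmet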; further: one replicate is shown; some compounds called inactive have numbers as strong as hits
Calb FLC: C. albicans growth inhibition with fluconazole, primary screen, CaCi-2 strain, Alamar Blue fluorescence. C. albicans CaCi-2 (fluconazole-resistant clinical isolate) + fluconazole, 48 h. growth inhibition, % (concentration not given with the values). actives 0.57% (n = 300,000). AID 1979, 2009;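 active means most replicates above 75%; inconclusive means exactly half above 75%; inactive means most below 75%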;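 further: all wells also contain fluconazole at 8 µg/ml as a sub-toxic cotreatment; 0% = median of DMSO wells and 100% = median of geldanamycin control wells; wells of about 8 µL received 7.5 nL stock; the first replicate is given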
ALR H2O2 inh: inhibitors of human ALR sulfhydryl oxidase, primary screen, biochemical, H2O2 detection, HRP-luminol luminescence, single point; actives 3.8% (n = 290,000); purified ALR, DTT oxidation; FAD-linked sulfhydryl oxidase ALR (Homo sapiens), P55789; inhibition, % (no concentration beside the values);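 active means mean and each replicate at 75% or more; inconclusive means only one of the two met; inactive means neither met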;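 further: stock transfer was 7.5 nL into about 7.5 µL; 0% = neutral wells and 100% = wells with inactivated enzyme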
Target sequence (P55789 whole entry, looked up): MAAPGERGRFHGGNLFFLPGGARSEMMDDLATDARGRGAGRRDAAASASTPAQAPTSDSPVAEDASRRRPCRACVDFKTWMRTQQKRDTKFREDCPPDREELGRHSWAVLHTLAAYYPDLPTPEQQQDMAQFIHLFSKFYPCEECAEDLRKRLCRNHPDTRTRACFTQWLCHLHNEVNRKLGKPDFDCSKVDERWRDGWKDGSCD
T cruzi inh: inhibitors of intracellular T. cruzi growth, primary screen, luminescence, NIH3T3 host cells; T. cruzi beta-gal in NIH3T3, 90 h; inhibition, % (concentration not given with the values); actives 1.4% (n = 300,000); AID 1885, 2009;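 active means mean inhibition across valid replicates above about 55%, limit read from the data; inconclusive means mean below that limit but half or more replicates reach it; inactive means mean below it, under half of replicates reach it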;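 further: signal also drops with host cell toxicity which is not excluded here; 0% = plate median of DMSO wells and 100% = zero luminescence signal; higher percent means less beta-gal luminescence so fewer parasites; stock transfer was 50 nL into about 50 µL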
LANA-H2A inh: blockers of LANA interaction with H2A/H2B – biochemical, FP readout, HTS, primary screen; Protein LANA1 (Human herpesvirus 8 type P (isolate GK18)), Q9QR71; cell-free LANA-H2A/H2B peptide, fluorescence polarization; inhibition, % (concentration not given with the values); actives 0.6% (n = 320,000); AID 2629, 2010; in the data active means inhibition mostly above about 10%, no sharp cut-off; inactive means mostly below about 6.7%;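 further: stock transfer was 7.5 nL into about 10 µL; 0% = median of vehicle wells and 100% = median of positive control wells; one replicate is shown; the record names a cut of 25% in any replicate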
Beta apoptosis: inhibitors of cytokine-induced beta cell apoptosis, primary screen, luminescence. INS-1E cytokine-induced death, ATP luminescence, 48 h; percent of positive-control rescue, neutral wells zero. protection from apoptosis, % (test concentration not listed). actives 0.8% (n = 300,000). AID 435005, 2010;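 active means all replicates at 75% or more, or half of them and the mean; inconclusive means half reach 75% but not the mean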;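 further: 0% = cytokine-treated negative control wells and 100% = positive control rescue; higher means more ATP so stronger rescue from cytokine killing; wells of about 40 µL received 100 nL stock; the first replicate is given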
Bfl-1 A1 inh: caspase 3/7 activation in MEF A1-2A-BIM cells, primary screen, A1 inhibitor project, cell-based, luminescence, HTS. AID 2462, 2010. actives 0.066% (n = 330,000). Caspase-Glo 3/7 luminescence, 3 h; percent of clofoctol response, vehicle zero. caspase activation, % (concentration not given with the values);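 active means over half of replicate activation scores above 10%, or exactly half above 10 with the replicate mean above 10; inconclusive means replicate mean below 10 yet half the replicates above 10; inactive means over half of replicates below 10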;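 further: wells of about 30 µL received 50 nL stock; many hits fall short of the cut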
rRNA inh HTS OD600: also measured in rRNA inh HTS; calls as there; OD600 change, %; measured here: OD600 growth;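 optical density of the mix in the first replicate; 0 = DMSO median and -100 = no signal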
rRNA inh HTS RFP: further read-out of rRNA inh HTS, marked with its call; RFP signal change, %; measured here: RFP humanized mutant strains;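 first replicate; 0 = DMSO median and -100 = no signal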
* marks the source's active call; other numbers are inactive results; ? = inconclusive; · = no result given. A portion of the library. The share of hits here may be higher or lower than overall.

Every second line gives: LANA-H2A inh	rRNA inh HTS OD600	Beta apoptosis	Calb FLC	B2AR ag	rRNA inh HTS RFP	rRNA inh HTS	T cruzi inh	ALR H2O2 inh	Bfl-1 A1 inh
> CC1=C(C(=O)Nc2cc(C(=O)N3CCN(c4cccc(C)c4)C(C)C3)ccc2C)SCCO1 (centres undefined)
→ -1.0	-40	4	8	-2	-20	-25	12	22	-0.6
> CN(C)C1CCN(Cc2cc(COCc3ccccc3)c3cccnc3c2O)C1 (centres undefined)
→ -0.9	·	77*	·	10	·	·	·	0	1.1
> CC(=O)CCc1oc2ccccc2c1-c1ccccc1
→ -9.4	-18*	·	-32	-7	-9.3*	-34*	7	·	-1.0
> COc1cc(NC(=O)COC(=O)CC(C)(C)C)c(C)cc1[N+](=O)[O-]
→ -1.8	-4.8*	2	-1	-3	3.5*	-22*	9	·	-0.5
> O=C(N/C=N/O)C1=NOC(CNc2ncc(C(F)(F)F)cc2Cl)C1 (centres undefined)
→ 12	·	-7	51	-3	·	·	3	-5	1.1
> Cc1cccc(C(=O)Nc2c(C#N)c(C)c(C)n2Cc2ccccc2)c1
→ 3.4	·	-1	-4	-11	·	·	20	-10	-0.2
> COCc1cc(=O)[nH]c(SC)n1
→ -5.4	·	-10	0	1	·	·	5	6	-0.5
> Cc1oc(-c2cccs2)nc1CS(=O)CC(=O)NCc1ccc2c(c1)OCO2 (centres undefined)
→ 1.0	-2	-11	0	-1	-6.6	10	6	28	-0.6
> O=C(COc1ccccc1[N+](=O)[O-])Nc1ccc(CN2CCOCC2)cc1
→ 2.3	3	0	-9	-6	-0.9	-2	2	·	0.5
> Cn1c(CNC(=O)Cc2ccc3c(c2)OCO3)nnc1SCc1ccccc1
→ -0.6	·	3	0	-2	·	·	-13	3	-0.5

Rewritten tab-delimited: part of the list above
compound	LANA-H2A inh	rRNA inh HTS OD600	Beta apoptosis	Calb FLC	B2AR ag	rRNA inh HTS RFP	rRNA inh HTS	T cruzi inh	ALR H2O2 inh	Bfl-1 A1 inh
COc1cc(NC(=O)COC(=O)CC(C)(C)C)c(C)cc1[N+](=O)[O-]	-1.8	-4.8*	2	-1	-3	3.5*	-22*	9	·	-0.5
COCc1cc(=O)[nH]c(SC)n1	-5.4	·	-10	0	1	·	·	5	6	-0.5
CC(=O)CCc1oc2ccccc2c1-c1ccccc1	-9.4	-18*	·	-32	-7	-9.3*	-34*	7	·	-1.0
CN(C)C1CCN(Cc2cc(COCc3ccccc3)c3cccnc3c2O)C1 (centres undefined)	-0.9	·	77*	·	10	·	·	·	0	1.1
O=C(N/C=N/O)C1=NOC(CNc2ncc(C(F)(F)F)cc2Cl)C1 (centres undefined)	12	·	-7	51	-3	·	·	3	-5	1.1
Cc1oc(-c2cccs2)nc1CS(=O)CC(=O)NCc1ccc2c(c1)OCO2 (centres undefined)	1.0	-2	-11	0	-1	-6.6	10	6	28	-0.6

Following part.
Every second line gives: LANA-H2A inh	rRNA inh HTS OD600	Beta apoptosis	Calb FLC	B2AR ag	rRNA inh HTS RFP	rRNA inh HTS	T cruzi inh	ALR H2O2 inh	Bfl-1 A1 inh
> Cc1ccc(NC(=O)C2CCN(C(=O)OC(C)(C)C)CC2)cc1S(=O)(=O)N1CCCCC1
→ -4.9	2	6	·	12	-1.6	2	·	·	0.6
> Cc1ccc(C(=O)N/C(=C\c2ccc3c(c2)OCO3)C(=O)Nc2ccc(C(=O)O)cc2)cc1
→ 7.3	-12	1	32	-4	3.2	-17	-2	6	-0.6
> COc1ccc(C2=NOC(Cn3nc(C(=O)NCc4ccc(OC(F)(F)F)cc4)cc3-c3ccccc3)C2)cc1 (centres undefined)
→ -1.0	7	16	7	0	3.2	9	3	1	0.6
> Nc1cccc([N+](=O)[O-])c1
→ -3.8	15	1	-11	0	7.1	4	-10	-4	-0.1
> CC(=O)Nc1nc(C(=O)O)cs1
→ 5.4	16	·	-2	-3	-2.2	26	1	-4	0.1
> CCCCn1c(SCC(=O)Nc2nnc(C)s2)nc2c1c(=O)n(C)c(=O)n2C
→ -8.8	·	0	-11	0	·	·	3	-4	1.4
> CCOc1ccc(NC(=O)CC2C(=O)N(c3ccccc3)C(=S)N2Cc2ccccn2)cc1 (centres undefined)
→ -1.5	·	6	10	8	·	·	13	-2	-0.4
> CCCCc1cc(=O)oc2cc(OCc3nn[nH]n3)c(Cl)cc12
→ -0.4	·	-2	15	-1	·	·	-12	15	-0.1
> O=C(O)C1CCCN1S(=O)(=O)c1ccc(Cl)cc1 (centres undefined)
→ 1.0	24	-8	-4	2	1.4	23	-7	-2	-0.4
> O=c1/c(=C\c2ccc(F)cc2)sc2n1CCCN=2
→ 2.0	-3	-3	-12	-17	0.1	-1	-5	49	-3.5
> Cc1ccc(-n2cccn2)c(CN2CCC(CO)(CCc3ccccc3)CC2)c1
→ ·	7	·	2	1	-0.8	8	16	·	·
> CCn1cc(C(=O)NCC2CCCO2)c2cc(OC)c(OC)cc2c1=O (centres undefined)
→ -1.0	·	-2	27	-5	·	·	-4	-8	0.2
> Cc1cccc(N2CCN(C(=O)c3ccccn3)CC2C)c1 (centres undefined)
→ -2.4	·	3	-2	-2	·	·	1	67	0.0
> COc1ccc(N2CCN(C(=S)NCc3ccccc3)CC2)cc1
→ 6.4	·	-5	-28	-8	·	·	6	·	1.3
> CCCCNC(=O)CC1S/C(=N/N=C/c2ccc(OC)cc2)NC1=O (centres undefined)
→ 1.2	9	-4	3	-7	-1.7	7	1	25	1.5
> COc1ccc(-c2csc3nc(-c4cccnc4)nc(N4CCC(C(N)=O)CC4)c23)cc1OC
→ -0.2	-59	-26	27	21	-12	-44	24	·	1.2
> S=C(NCC1CCCO1)N1CCN(Cc2ccccc2Cl)CC1 (centres undefined)
→ 3.5	-6	4	5	-3	-2.8	-8	-16	-6	0.3
> Cc1ccc(NC2CC(=O)N(c3cccc([N+](=O)[O-])c3)C2=O)cc1 (centres undefined)
→ 1.0	-2	-9	38	-2	9.8	-1	-8	·	0.2
> Cc1ccc2nc(-c3cccs3)oc(=O)c2c1
→ 1.8	·	-1	-6	4	·	·	-4	7	-4.4
> CCC(=O)NC(=S)Nc1ccc(NC(=O)c2ccc(OC)cc2)cc1
→ 1.8	12	·	0	8	0.4	17	-2	-6	-0.9
> CN(C)CCSc1nc(N)c2c3c(sc2n1)CN(C)CC3
→ -2.4	·	-4	-7	7	·	·	6	99*	-0.1
> CC(C)N(Cc1ccccc1)C(=O)COC(=O)c1ccc2ncsc2c1
→ -2.7	-14	-3	·	-2	-0.7	0	·	·	1.3
> CC(=O)C1=C(c2ccccc2)NC(=O)NC1c1ccccc1OCC(=O)NCc1ccccc1 (centres undefined)
→ -2.9	·	-6	-6	0	·	·	·	-27	1.1
> CC1CCN(C(=O)CCNS(=O)(=O)c2ccccc2)CC1
→ 1.9	·	0	-1	9	·	·	-4	-2	0.3
> COc1ccccc1N1CCN(S(=O)(=O)CCNC(=O)C2CC(=O)N(c3ccccc3)C2)CC1 (centres undefined)
→ -1.8	0	2	5	4	2.2	-6	3	-2	0.3
> CCOC(=O)C(C)Sc1nc(C2CC2)cc(C(F)(F)F)c1C#N (centres undefined)
→ 6.8	·	-5	-4	6	·	·	-13	-3	-0.6
> C=CCn1cc(CN2CCC(C(=O)Nc3ccc(Oc4cccnc4)cc3)CC2)c(C)n1
→ -7.2	6	-5	2	-11	5.4	6	9	-11	1.5
> OCC1(CCOc2ccccc2)CCN(C2Cc3ccccc3C2)CC1
→ 0.5	11	1	?	-1	-0.8	13	12	-2	1.2
> O=C(c1ccccn1)C1CCCN(Cc2nc(Cc3cccc(F)c3)no2)C1 (centres undefined)
→ 0.8	1	-5	-2	3	7.7	5	12	·	-0.6
> COC1=CC2(O)CCCC2=CC1=O (centres undefined)
→ -1.0	-1	-3	-2	-1	2.3	12	0	-8	2.7
> COc1cc(OC)cc(-c2c(-c3cccs3)c3cc(-c4ccc(SC)cc4)ccc3n2C)c1
→ 15	12	6	·	-5	-9.7	8	·	-9	-0.8
> Cc1ccc(N2C(N)=NC(N)=NC2(C)C)c(C)c1
→ 0.3	·	1	0	4	·	·	0	-4	0.9
> CCOC(=O)C1=C(c2ccccc2)Nc2c(c(=O)n(C)c(=O)n2C)C1c1ccc(O)c(OC)c1 (centres undefined)
→ 0.3	·	-1	-4	1	·	·	-7	11	-0.3
> O=C(CSc1nnc(-c2cccc(S(=O)(=O)N3CCOCC3)c2)n1C1CCCCCC1)NCc1ccccc1
→ 0.5	·	4	-7	-3	·	·	25	-2	-0.7
> COc1nc(N)c(C#N)c(-c2ccc(N(C)CCC#N)cc2)c1C#N
→ 1.1	-3	10	5	12	1.7	-9	17	-4	0.1
> CC1CN(C)C(C)C/C1=N/Oc1ccccc1[N+](=O)[O-] (centres undefined)
→ -4.0	-5	-3	14	-1	2.8	-1	21	-24	0.6
> Cc1ccc(C)c(Cn2c3ccccc3c3cnn(CC(=O)NCCCN4CCOCC4)c(=O)c32)c1
→ -4.6	-8	1	16	-3	0.4	-4	3	-2	0.0
> COC(=O)Cn1cc(/C=C(/C#N)C(=O)N2CCOCC2)c2ccccc21
→ -8.4	3	-9	-7	4	-5.6	3	-8	·	-0.3
> O=C(CC1SC(=O)N(Cc2ccc(Cl)cc2)C1=O)Nc1nccs1 (centres undefined)
→ -4.0	18	-4	-9	-13	4.4	-1	4	-1	0.5
> CCN1C(=O)/C(=C2\SC(N3CCOCC3)=NC2=O)c2ccccc21
→ ·	10	·	8	-11	-3.5	1	0	·	·
> CCOC(=O)c1c(NC(=O)COC(=O)Cn2cnc3ccccc32)sc(C)c1C
→ -2.1	·	-2	7	-4	·	·	1	-2	-0.4
